Source: PubChem
Hsc70: small molecules displacing fluorescent ligand from Hsc70 – biochemical, fluorescence polarization, primary screen (AID 568) | Hsc70 fluorescence polarization, probe displacement; higher % means a stronger effect; strong numbers were not always called active | displacement, % at 20 µM; hits with a dose series show IC50 in µM | 83,000 tested, under 10 active;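 active means displacement above 50% without optical interference and an IC50 on retest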;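 further: ATPase domain with a fluorescein-tagged ATP probe; 0% = vehicle and 100% = excess ADP; read after one hour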
WNV protease inh: inhibitors of West Nile virus NS2B-NS3 protease; 0.18% of 65,000 active; P06935; z-score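 (tested at a level between 10 and 100 µM)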; AID 577; WNV NS2B-NS3 protease, fluorogenic substrate Ex360/Em465; hits give low values;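 active means z-score at -3 or under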;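 further: score is relative to mean and spread of the compound wells of a plate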
Target sequence (P06935 1371-1501 limits assumed): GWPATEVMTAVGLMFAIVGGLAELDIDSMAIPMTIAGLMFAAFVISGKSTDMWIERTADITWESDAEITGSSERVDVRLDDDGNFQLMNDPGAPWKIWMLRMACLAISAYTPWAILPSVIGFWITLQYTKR
Target sequence (P06935 1502-1679 limits assumed): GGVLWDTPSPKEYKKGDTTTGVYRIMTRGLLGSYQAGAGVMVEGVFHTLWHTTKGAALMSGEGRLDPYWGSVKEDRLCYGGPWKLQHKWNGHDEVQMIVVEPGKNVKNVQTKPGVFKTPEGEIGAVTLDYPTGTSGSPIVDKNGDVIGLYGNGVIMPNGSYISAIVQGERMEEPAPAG
MT1-MMP promoter: inhibitors of MT1-MMP promoter transcription, cell-based, luciferase reporter, luminescence (AID 618). 0.62% of 87,000 active. MT1-MMP promoter luciferase reporter cells, luminescence. calls from a first round at 10 µM; hits with a dose series show EC50 in µM;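 active means over half of the reporter light lost at 10 µM or EC50 under 50 µM; inactive means the rest and hits that failed the dose series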;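 further: actives suppress MT1-MMP promoter-driven transcription so potencies describe inhibitors; HT1080 fibrosarcoma cells; overnight exposure; toxic or luciferase-blocking compounds were not removed from the actives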
An asterisk follows results filed as active; i = inactive; / = no result given; & = joins results of further samples. Not all compounds are listed, so the mix of outcomes need not match the whole.

Order of results: MT1-MMP promoter	Hsc70	WNV protease inh
- COc1ccc(-c2nc(-n3c(C)c(C(C)=O)c(C(C)=O)c3C)sc2C)cc1
  i	-2.4%	/
- COc1ccc(NC(=O)CSc2nnc(-c3ccccn3)n2-c2ccccc2)cc1OC
  i	6.5%	/
- c1ccc(-c2nnn(C34CC5CC(CC(C5)C3)C4)n2)cc1
  i	2.0%	-1.5
- CCn1cnc2cc(NC(=O)c3ccco3)ccc21
  i	2.0%	/
- COc1cc(NC(=O)Cc2cccs2)ccc1-n1cnnn1
  i	-1.1%	-0.03
- O=C(Cn1ncc2c1-c1ccccc1OC2)Nc1nc2ccccc2s1
  i	6.6%	0.08
- CC(C)(C)C(=O)CN1C(=O)C2(OCCO2)c2ccccc21
  i	4.0%	-0.69
- CN(C)C=Nc1nonc1N
  i	-3.0%	-1.1
- O=C1CCCN1CN(C(=O)c1ccccc1)c1ccc(F)cc1
  i	8.1%	0.72
- CCOc1cc(C2NC(=O)NC(O)(C(F)(F)F)C2C(=O)c2ccc(OC)cc2)ccc1O (stereo not given)
  i	2.0%	1

Going on with the list.
Order of results: MT1-MMP promoter	Hsc70	WNV protease inh
- COc1ccc(CCNS(=O)(=O)c2ccc3oc(C(=O)O)c(C)c3c2)cc1OC
  i	-6.8%	0.93
- CC1(C)CC(=S)Nc2ccccc2S1
  i	-3.5%	/
- C1=C(c2ccccc2)Nc2nnnn2C1c1cccs1 (stereo not given)
  i	2.1%	/
- O=c1oc2ccccc2c2nccnc12
  i	-0.6%	-0.98
- COc1ccc(C2Oc3ccccc3C3=C2C(c2cccs2)n2ncnc2N3)cc1 (stereo not given)
  i	5.5%	/
- CCOc1ccccc1NC(=O)N1CCCC1C(=O)Nc1ccc(NC(C)=O)cc1 (stereo not given)
  i	-7.4%	1.4
- Cc1ccnc(NC(=O)CCC(=O)N(CC(=O)NCc2ccccc2)c2ccc3c(c2)OCO3)c1
  i	-2.4%	/
- O=C(O)CCCc1nc(-c2ccccc2)no1
  i	-2.6%	-0.12
- Cc1ccccc1C(=O)N1CCN(c2ccccn2)CC1
  i	5.6%	/
- CS(=O)(=O)N(CC(=O)NCc1ccncc1)Cc1ccc(Cl)cc1
  i	0.1%	-0.66

Later entries
Order of results: MT1-MMP promoter	Hsc70	WNV protease inh
- CCn1c(SCC(=O)Nc2cccc(NC(=O)c3ccco3)c2)nnc1-c1cccs1
  i	-0.7%	-0.15
- O=c1cc(O)nc(SCc2ccc(Cl)cc2)[nH]1
  i	-5.7%	-0.17
- Cn1c(=O)c2c(nc(NCCc3ccccc3)n2Cc2ccc(F)cc2)n(C)c1=O
  i	-5.0%	0.86
- CC(C)(C)c1cnnn1-c1ccc(-c2csc(N)n2)cc1
  i	-0.9%	-0.05
- CC(C)c1cccc(C(C)C)c1OCCCCN1CCCC1
  i	-1.3%	/
- O=C(NCCCn1ccnc1)c1cc2nc(-c3ccc(Br)cc3)cc(C(F)(F)F)n2n1
  i	0.1%	/
- O=C(CN(c1ccc(F)cc1)S(=O)(=O)c1ccc2c(c1)OCCO2)Nc1ccc2c(c1)OCO2
  i	-0.6%	-0.4
- CC(C)=C1SC(N2CCCCC2)=NC1=O
  i	0.8%	/
- CCOc1ccc2nc(SC(CC)C(=O)Nc3cc(C)on3)sc2c1 (stereo not given)
  i	0.2%	-1.1
- O=C(Nc1ccccc1C(=O)N1CCOCC1)c1ccco1
  i	-5.7%	0.2

Next structures:
Order of results: MT1-MMP promoter	Hsc70	WNV protease inh
- COc1ccc(CN(CC2CCCO2)S(=O)(=O)c2ccc(C(=O)O)cc2)cc1OC (stereo not given)
  i	-6.2%	1.6
- Cc1onc(-c2c(Cl)cccc2Cl)c1C(N)=O
  i	4.1%	0.47
- Cn1c(=O)c2c(-c3ccccc3)n(Cc3cccnc3)cc2n(C)c1=O
  i	-5.6%	-0.16
- Cn1c(Cc2cccs2)n[nH]c1=S
  i	2.0%	2.3
- Cc1cc(C)nc(SCCS(=O)Cc2ccc(Cl)cc2)n1 (stereo not given)
  i	-0.3%	-0.28
- O=C(NCCC1=CCCCC1)NC12CC3CC(CC(C3)C1)C2
  i	-0.8%	/
- Cc1ccc(NC(=O)c2noc3c2CCCCC3)cc1
  i	-4.3%	0.94
- CC1CCN(CCc2nc3cc(NC(=O)NC4CCCCC4)ccc3n2C)CC1
  i	1.7%	/
- OCC#CCSc1nnc(-c2ccncc2)o1
  i	-2.0%	0.39
- O=C(c1ccc(-n2cnnn2)cc1)N1CCOCC1
  i	5.3%	-0.08

Carrying on:
Order of results: MT1-MMP promoter	Hsc70	WNV protease inh
- CCCCCCSC1=C(C#N)C(c2ccc(O)cc2)CC(=O)N1 (stereo not given)
  i	1.2%	1.3
- O=C(C1CCCN(S(=O)(=O)Cc2ccccc2)C1)N1CCc2ccccc21 (stereo not given)
  i	0.3%	0.4
- Cc1ccc(S(=O)(=O)NCC(=O)NCc2ccncc2)cc1
  i	6.3%	/
- NC(=O)c1cccnc1
  i	1.0%	-0.25
- Cc1ccc(NC(=O)C2CCCN(c3ncccn3)C2)cc1F (stereo not given)
  i	5.0%	-0.83
- CCN(CC(=O)Nc1cccc(C(C)=O)c1)S(=O)(=O)c1ccc(OC)cc1
  i	2.5%	-1.3
- COc1ccc(OC(C)=O)c(C2c3cc(OC)c(OC)cc3CCN2C(C)=O)c1 (stereo not given)
  i	6.0%	-1.2
- O=C(O)c1cc(NCc2ccc3c(c2)OCO3)ccc1N1CCOCC1
  i	6.0%	-0.91
- CC(=O)c1ccc(NC(=O)C2CC(c3ccc(F)cc3)=NO2)cc1 (stereo not given)
  i	-6.8%	0.05
- CCOC(=O)CSc1nnc(CSc2nc3sc4c(c3c(=O)[nH]2)CCCC4)n1-c1ccccc1
  i	-2.4%	/

Grouped by structure: the compounds so far containing a thiophene ring, fused or not (six)
Order of results: MT1-MMP promoter	Hsc70	WNV protease inh
- COc1cc(NC(=O)Cc2cccs2)ccc1-n1cnnn1
  i	-1.1%	-0.03
- C1=C(c2ccccc2)Nc2nnnn2C1c1cccs1 (stereo not given)
  i	2.1%	/
- COc1ccc(C2Oc3ccccc3C3=C2C(c2cccs2)n2ncnc2N3)cc1 (stereo not given)
  i	5.5%	/
- CCn1c(SCC(=O)Nc2cccc(NC(=O)c3ccco3)c2)nnc1-c1cccs1
  i	-0.7%	-0.15
- Cn1c(Cc2cccs2)n[nH]c1=S
  i	2.0%	2.3
- CCOC(=O)CSc1nnc(CSc2nc3sc4c(c3c(=O)[nH]2)CCCC4)n1-c1ccccc1
  i	-2.4%	/

Following part
Order of results: MT1-MMP promoter	Hsc70	WNV protease inh
- COC(=O)CNC(=O)C1CCN(c2nc(C)cc(C)n2)CC1
  i	5.3%	-0.41
- CCOc1ccc(C2CC(c3cccc(OC)c3)Nc3ncnn32)cc1 (stereo not given)
  i	-1.2%	-0.61
- COc1ccc(CCNC(=O)C2CCN(Cc3nc(-c4cccc(Cl)c4)oc3C)CC2)cc1OC
  i	0.2%	1.4
- O=C(CC(=O)N1CCN(c2ccccn2)CC1)Nc1ccc2nc3n(c(=O)c2c1)CCCCC3
  i	1.4%	-1.5
- CCOc1ccc(Cc2nc(N)nc(N)n2)cc1
  i	-0.4%	-0.36
- CCOc1ccc(NC2=NCCC(=O)N2Cc2cccs2)cc1
  i	0.2%	0.38
- O=C(O)C1C2C=CC3(O2)C1C(=O)N1c2ccccc2C2OCCC2C13 (stereo not given)
  i	-10%	0.43
- COc1ccc(Oc2cn[nH]c2-c2ccc(O)cc2O)cc1
  i	7.1%	1.2
- Cc1[nH]nc(N2CCCCCC2)c1[N+](=O)[O-]
  i	-1.2%	/
- CCn1c(Cn2nnc(-c3ccccc3)n2)nnc1SCC(=O)Nc1ccc(N(C)C)cc1
  i	-0.1%	0.3

Other compounds follow.
Order of results: MT1-MMP promoter	Hsc70	WNV protease inh
- Cn1c(=O)[nH]c(=O)c2c1nc(CN(Cc1ccccc1)Cc1ccccc1)n2CCN1CCOCC1
  i	-0.2%	0.16
- Cc1cccc(CS(=O)(=O)Cc2ccc(C(=O)NCCCN3CCOCC3)o2)c1
  i	-1.3%	-0.46
- COc1ccc(/C=C2\CCOC2=O)cc1
  i	2.7%	/
- CCOCc1cc(C)[nH]c(=O)c1C#N
  i	-4.8%	1.4
- O=C(CCn1c(=O)oc2ccccc21)N1CCN(C(c2ccccc2)c2ccccc2)CC1
  i	2.5%	-0.82
- CC1=C(C(N)=O)C(c2cccs2)n2nc(-c3cccc(Cl)c3)nc2N1 (stereo not given)
  i	1.1%	-1.1
- Cc1cc2c3c(c1)C1(C(=O)N3C(C)(C)CC2C)C(C#N)=C(N)Oc2cc(O)ccc21 (stereo not given)
  i	0.9%	-0.32
- O=C(NC(Cc1ccccc1)C(=O)O)OCc1ccccc1 (stereo not given)
  i	-7.0%	-1.1
- Cc1cc(C(=O)NCc2ccc3c(c2)OCO3)n(-c2ccccc2)n1
  i	4.3%	1.3
- CCN(CC)S(=O)(=O)c1ccc2oc(SCc3ccc(F)cc3)nc2c1
  i	-0.9%	-0.09

Further results
Order of results: MT1-MMP promoter	Hsc70	WNV protease inh
- O=c1c(CN2CCN(Cc3ccccc3)CC2)coc2ccc(Cl)cc12
  i	-3.1%	0.58
- CCCCc1ccc(NC=C2C(=O)OC3(CCCCC3)OC2=O)cc1
  i	0.2%	/
- CN1CCc2c(sc3c2C(=O)NC(c2ccco2)N3)C1 (stereo not given)
  i	-0.7%	-0.36&0.24
- CCOC(=O)C1C(=O)CC(C)(O)C(C(=O)OCC)C1c1ccco1 (stereo not given)
  i	-3.9%	-1.7
- COC(=O)c1[nH]c(C)c(/C(O)=C2\C(=O)C(=O)N(CCN(C)C)C2c2cccc(OC)c2OC)c1C (stereo not given)
  i	1.4%	-0.27
- O=C(CCn1c(=S)[nH]c2cc3c(cc2c1=O)OCO3)N1CCN(C2CCCCC2)CC1
  i	3.2%	-0.06
- CCOc1ccc(C2C(C(=O)c3ccco3)=C(O)C(=O)N2CCN(C)C)cc1 (stereo not given)
  i	-0.9%	/
- C(=N\c1nc2ccccc2[nH]1)/c1cccs1
  i	-1.7%	-0.02
- CCc1ccccc1N1C[C@@]23C=C[C@@H](O2)C(C(=O)OCC(C)C)[C@H]3C1=O (stereo not given in full)
  i	-6.8%	-0.21
- COc1ccc(-c2nn(CC(=O)Nc3ccc(Cl)c(Cl)c3)c(=O)c3ccccc23)cc1
  i	-4.0%	/

More structures:
Order of results: MT1-MMP promoter	Hsc70	WNV protease inh
- Cc1c(N=C/C=C/c2ccccc2)c(=O)n(-c2ccccc2)n1C
  i	-2.3%	-0.65
- Cc1noc(C)c1S(=O)(=O)N(CC(=O)N1CCn2c1nc1ccccc12)c1ccc(C(C)C)cc1
  i	3.3%	-2
- O=C1C=C(Nc2cccc(O)c2)CC(c2ccco2)C1 (stereo not given)
  i	2.1%	/
- CCCc1cc(C(=O)Nc2sc3c(c2C(=O)OCC)CCCC3)no1
  i	3.9%	2.7
- Cc1nnc(NC2=NCCC2)s1
  i	-0.6%	-0.75
- CCOc1ccccc1C1C(C#N)=C(N)Oc2n[nH]c(CC)c21 (stereo not given)
  i	-1.4%	-0.98
- CN1CCN(C(=O)c2ccc3c(c2)N(Cc2ccc(Cl)cc2)C(=O)c2ccccc2S3=O)CC1 (stereo not given)
  i	-2.2%	0.78
- O=C(c1ccc(C#CC2(O)CCCCC2)cc1)N1CCN(Cc2ccccc2)CC1
  i	1.7%	/
- Cc1ccsc1C=Nc1ccc(O)cc1
  i	-1.7%	-0.32
- Cc1cc(NC(=O)C2CCCN2C(=O)Nc2c(C)cccc2C)ccc1-n1cnnn1 (stereo not given)
  i	2.3%	/

Next section:
Order of results: MT1-MMP promoter	Hsc70	WNV protease inh
- Cc1c(NC(=O)c2ccccc2NS(=O)(=O)c2ccc(Br)cc2)c(=O)n(-c2ccccc2)n1C
  i	3.1%	/
- Cc1ccccc1-c1nc(CN2CCC(C(=O)NCCC3=CCCCC3)CC2)c(C)o1
  i	-0.1%	-0.22
- OC(CN1CCN(c2ccccn2)CC1)Cn1c2ccccc2c2ccccc21 (stereo not given)
  i	-2.7%	0.8
- Cc1nc2sc(C(c3cccs3)N3CC(C)CC(C)C3)c(O)n2n1 (stereo not given)
  i	1.5%	0.41
- CCn1cc(C(=O)Nc2cccc(NC(C)=O)c2)c2cc(OC)c(OC)cc2c1=O
  i	-4.1%	0.05
- O=C(CSc1nc(-c2ccccc2)cs1)NC(=O)NCc1ccco1
  i	-4.7%	0.45
- C/C=C/c1ccc(Oc2nnnn2-c2ccc(C(N)=O)cc2)c(OC)c1
  i	8.4%	0.22
- CC(=O)C1=C(O)C(=O)N(CCC(=O)O)C1c1ccc(Cl)cc1Cl (stereo not given)
  i	5.5%	/
- CC1CCC(NC(=O)c2ccc(CS(=O)(=O)Cc3ccccc3F)o2)CC1 (stereo not given)
  i	7.4%	-0.17
- O=C(CCN1C(=O)c2ccncc2C1=O)NCc1ccc(Cl)cc1
  i	0.5%	-0.74

The results go on:
Order of results: MT1-MMP promoter	Hsc70	WNV protease inh
- COC(=O)C(C(=O)Nc1ncccn1)C1CCCCCC1 (stereo not given)
  i	-4.3%	-0.92
- CCOC(=O)N1CCN(C(=O)C2CCCN(S(=O)(=O)c3cccnc3)C2)CC1 (stereo not given)
  i	-1.3%	-0.37
- Cc1ccc(Cn2nc(C)c(NC(=O)c3nn(C)cc3Cl)c2C)cc1
  i	0.7%	/
- CCOC(=O)C1=C(C)Nc2nnnn2C1c1cccc(OC)c1OC (stereo not given)
  i	-4.0%	2.4
